Screening data (PubChem BioAssay)
ClpP mod – qHTS Assay for Activators of ClpP. hit rate 1.9% among 340,000. purified B. subtilis ClpP, FRET peptide cleavage, 20 min. Potency, µM (series often up to 57.5 µM), for inactives: top-dose activity change, negative = active. AID 651965, 2013; active = well fitted falling curve with a large enough effect; inconclusive = small, poorly fitted or top-dose-only effect; inactive = no such curve, though single readings can be large or run the other way; also: the source files actives as falling curves though it sought activators and does not explain the sign; nearly all actives have a fitted effect of over 65% in size; many hits overshoot -100%
Target sequence (P80244 whole entry, looked up): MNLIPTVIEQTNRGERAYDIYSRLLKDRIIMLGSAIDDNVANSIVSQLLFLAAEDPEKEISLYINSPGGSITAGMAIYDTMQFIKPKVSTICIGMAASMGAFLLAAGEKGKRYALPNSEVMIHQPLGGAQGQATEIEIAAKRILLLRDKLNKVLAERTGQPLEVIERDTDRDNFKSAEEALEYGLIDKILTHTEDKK
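Buffer: 100 mM Tris/HCl pH8, 100 mM KCl, 0.05% low protease BSA, 2.5% glycerol, 0.01% Tween-20. ClpP 10 microg/mL final; 20 min RT; delta FRET normalized to ADEP and DMSO controls.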
* hit, by the source's call; u = inconclusive. Potency is read from the fitted curve at half-maximal effect.

| canonical_smiles | ClpP mod |
| --- | --- |
| COc1ccc(OC)c(NS(=O)(=O)c2ccc(N3CCCCS3(=O)=O)cc2)c1 | -1.0% |
| Cc1cc(F)ccc1NC(=O)Cn1cc(S(=O)(=O)NC(C)C)c(S(=O)(=O)NC(C)C)c1 | -0.8% |
| COc1cc(OC)cc(C(=O)Nc2ccc3c(c2)n(C)c(=O)c(=O)n3C)c1 | -2.8% |
| COc1cccc(NC(=O)c2ccc3nc(CCc4ccccc4)oc3c2)c1 | u |
| CC(C)CC(=O)N1c2nc(C(C)C)nn2C2(CCCCC2)[C@@H]2CCCC[C@@H]21 | -0.9% |
| Cc1cccc(Cn2cc(C(=O)c3ccccc3)c(=O)c3cc4c(cc32)OCO4)c1 | -0.1% |
| CCn1c(=O)cc(OCC(=O)N2CCN(c3cccc(Cl)c3)CC2)c2ccccc21 | -9.4% |
| Clc1ccc(-n2c(Cc3ccccc3)nnc2SCc2nc(-c3cccs3)no2)cc1 | 1.4% |
| Cc1ccc(CNC(=O)CSc2nc3ccsc3c(=O)n2-c2ccc(C(=O)O)cc2)cc1 | -0.8% |
| CCCCN(C)S(=O)(=O)c1ccc(NC2=NS(=O)(=O)c3ccccc32)cc1 | 4.1% |
| C#CCSc1nc2sc3c(c2c(=O)n1Cc1ccccc1)CCCC3 | -3.9% |
| Cc1ccc(-n2ncc3c(NCCCN4CCOCC4)ncnc32)cc1 | 1.8% |
| CC(Sc1nc(=O)cc(N)n1CCc1ccccc1)C(=O)Nc1cccc(Cl)c1 (stereo unspecified) | -0.8% |
| Cc1ccc(C)c(NC(=O)C(Cc2ccccc2)n2cccc2)c1 (stereo unspecified) | 1.0% |
| Cc1nc2ccc(S(=O)(=O)N(CC(=O)Nc3cccc(C)c3C)Cc3ccccc3)cc2s1 | 1.3% |
| CC(C)c1ccc(NC(=O)CS(=O)(=O)c2cccc3nsnc23)cc1 | 1.4% |
| COc1ccc(NCc2nc3ccccc3n2CCOc2ccccc2C)cc1 | 1.0% |
| Cc1ccc(NC(=O)C2CCCN(c3ncnc4c3nc3n4CCCCC3)C2)cc1F (stereo unspecified) | 1.1% |
| CN1CCN(C(CNC(=O)C(=O)Nc2ccccc2)c2ccc3c(c2)OCO3)CC1 (stereo unspecified) | -0.3% |
| CC(=O)Nc1ccc(C2Sc3ccccc3NC3=C2C(=O)c2ccccc23)cc1 (stereo unspecified) | -8.3% |
| O=C(CSc1ncc(S(=O)(=O)c2ccc(Cl)cc2)c(=O)[nH]1)Nc1cccc(C(F)(F)F)c1 | -0.1% |
| O=C(Cn1cc(SCc2ccc(Br)cc2)c2ccccc21)N1CCCCC1 | -0.4% |
| CCOc1ccc(-n2c(SCC(=O)Nc3cccc(Cl)c3)nc3c(oc4ccccc43)c2=O)cc1 | -1.6% |
| CCc1ccccc1NS(=O)(=O)c1ccc2[nH]cc(C(=O)N(CC(C)C)CC(C)C)c(=O)c2c1 | 4.6% |
| CCOC(=O)c1noc2ncn(Cc3cccc(C#N)c3)c(=O)c12 | -2.4% |
| CC(=O)N1CCc2c(sc(NC(=O)CSc3ccc(F)cc3)c2-c2nc3ccccc3s2)C1 | -16% |
| CCOc1ccc(-n2c(SCc3nc(-c4ccc(OC)cc4)no3)nnc2-c2ccncc2)cc1 | 2.0% |
| Cc1ccc(CN(C(=O)COc2ccc(Cl)c(C)c2)C2CCS(=O)(=O)C2)o1 (stereo unspecified) | -4.8% |
| Cn1c(C(=O)NCc2cccc(Cl)c2)cc2oc3ccccc3c21 | 4.1% |
| CC(=O)OCc1cnc(C)c2oc(=O)c(C(=O)Nc3cccc(F)c3)cc12 | -2.1% |
| COc1ccccc1N1CCN(C(=O)CSc2nc3ccccc3nc2Cc2ccc(F)cc2)CC1 | -0.5% |
| Cc1ccc(NC(=O)c2cc(S(=O)(=O)N3CCc4ccccc43)cn2C)c(Cl)c1 | u |
| COC(=O)c1cc2oc3ccccc3c2n1Cc1nc(-c2cccc(C)c2)oc1C | -4.0% |
| COc1ccc(OC)c(S(=O)(=O)NCC(c2cccs2)S(=O)(=O)c2ccc(F)cc2)c1 (stereo unspecified) | 1.7% |
| Cc1cccc(CCNc2ncnc3onc(-c4ccc(Cl)cc4)c23)c1 | -10.0% |
| CSc1ccc(CCNC(=O)Cn2nc(C)n3c(cc4sccc43)c2=O)cc1 | -3.5% |
| CC(=O)Nc1ccc(NC(=O)CN(C)S(=O)(=O)c2ccc3c(c2)CCCC(=O)N3)cc1 | -0.7% |
| COc1ccccc1NC(=O)CC(C)n1nc(C)cc1C (stereo unspecified) | 1.1% |
| Cc1ccc(S(=O)(=O)c2nnn3c2nc(NCc2ccc(F)cc2)c2sccc23)cc1 | -11% |
| Cc1ccc(S(=O)(=O)Nc2nc3n(n2)C(c2ccc(F)cc2)C=C(c2ccccc2)N3)cc1 (stereo unspecified) | 4.4% |
| CCOc1ccccc1NC(=O)Cn1c2ncccc2c(=O)n1-c1ccc(C)c(C)c1 | 4.4% |
| COc1ccc(-c2c(C)c3ccc(O)c(CN4CCCCC4)c3oc2=O)cc1OC | 4.2% |
| O=C(NCc1cccs1)c1ccc2c(=O)n3nc(Nc4ccccc4)sc3nc2c1 | -7.5% |
| Cc1ccc(OCC(=O)NCC(c2ccc(Cl)cc2)N2CCCCC2)cc1 (stereo unspecified) | -1.3% |
| Cc1nnc(SCc2ccccc2Cl)c2cc3occc3n12 | -4.5% |

Next part
| Compound | ClpP mod |
| --- | --- |
| CN(C)c1ccc(C(CNS(=O)(=O)c2ccc(F)cc2)N2CCOCC2)cc1 (stereo unspecified) | -6.0% |
| CC(c1ccccc1)n1c(-c2ccccc2)n[nH]c1=S (stereo unspecified) | -14% |
| CCOc1ccc(S(=O)(=O)Nc2cc3c(C(=O)OC)c(COC)oc3c3ccccc23)cc1 | -1.5% |
| COc1ccc(OCc2nc3c4c(-c5ccc(OC)cc5)c(-c5ccc(OC)cc5)oc4ncn3n2)cc1 | -30% |
| COc1ccccc1Nc1nn2c(=O)c3ccc(C(=O)NC4CCCCC4)cc3nc2s1 | -65% |
| CSc1ncc(Cl)c(C(=O)NCc2ccc(C)cc2)n1 | 2.5% |
| O=C(NCCc1ccc(F)cc1)C(=O)NCC(c1cccs1)S(=O)(=O)c1cccs1 (stereo unspecified) | -3.6% |
| CN1CCc2c(c3cnc4cc(Cl)ccc4c3n2C)C1 | -0.6% |
| CN1CC[C@H](c2c(O)cc(O)c3c(=O)cc(-c4ccccc4Cl)oc23)[C@@H](O)C1 | 0.3% |
| Cc1cccc(N2CCN(C(=O)c3cc(S(=O)(=O)N4CCC(C)CC4)cn3C)CC2)c1C | 2.3% |
| CSCCC(NS(=O)(=O)c1ccc2c(c1)oc(=O)n2C)C(=O)N1CCN(c2cc(Cl)ccc2C)CC1 (stereo unspecified) | -1.3% |
| CCCN(CCC)C(=O)Cn1c(=O)n(Cc2ccc(C(=O)NCCc3ccc(Cl)cc3)cc2)c(=O)c2ccccc21 | -6.0% |
| CCCCSCCCNC(=O)c1cn(C)c2ccc(S(=O)(=O)N3CCCCC3)cc2c1=O | -5.9% |
| CCN(C(=O)C(=O)c1c(C)[nH]c2ccccc12)c1ccccc1 | 1.0% |
| Cc1cc2ccccc2n1-c1ccc(C(=O)N2CCC(C(=O)NCc3ccc(F)cc3)CC2)s1 | -16% |
| Cc1ccc(S(=O)(=O)C(CNC(=O)COc2ccccc2)c2ccco2)cc1 (stereo unspecified) | -1.3% |
| COc1ccc(CCn2c3c(c(=O)[nH]c2=O)C(NC(=O)c2ccccc2OC)(C(F)(F)F)C(=O)N3)cc1OC (stereo unspecified) | -1.8% |
| COc1ccccc1-c1nc2c3c(-c4ccccc4)c(-c4ccccc4)oc3ncn2n1 | u |
| Cc1ccc(CCNC(=O)c2cc3cc4cc(C)ccc4nc3s2)cc1 | 0.7% |
| CCOc1ccc2oc(=O)cc(CN3CCN(c4ccc(Cl)cc4)CC3)c2c1 | 1.0% |
| CCc1ccc2oc(-c3ccc(C)c(NC(=O)Cc4ccccc4)c3)nc2c1 | -7.1% |
| COc1ccc(Nc2nc3ccccc3n3c(N)nnc23)cc1 | -2.5% |
| CCCCc1ccc(NS(=O)(=O)c2cc3c4c(c2)CC(=O)N4CCC3)cc1 | 0.2% |
| C=Cc1ccc(N=Cc2ccc(N(C)C)cc2)cc1 | -4.3% |
| CCNC(=O)c1ccc(C)c(-n2c(C)nc3cccnc32)c1 | -23% |
| Cc1ccc(C(=O)N(Cc2ccc(N(C)C)cc2)Cc2ccco2)cc1 | 0.0% |
| NC(=O)CN1C(=O)C2(SCC(=O)N2c2cccc(F)c2)c2ccccc21 (stereo unspecified) | 0.0% |
| COc1ccc(-c2nc3ccccc3s2)cc1NC(=O)c1cc(OC)c(OC)c(OC)c1 | -3.0% |
| CCOC(=O)c1[nH]c(C)c(CCC(=O)NCc2ccccc2)c1C | -2.1% |
| CC(=O)NC1CCCC1C#N (stereo unspecified) | 1.3% |

An excerpt from above in order of length of the SMILES, lowest first.
| Compound | ClpP mod |
| --- | --- |
| CC(=O)NC1CCCC1C#N (stereo unspecified) | 1.3% |
| CCc1ccc2oc(-c3ccc(C)c(NC(=O)Cc4ccccc4)c3)nc2c1 | -7.1% |
| O=C(NCCc1ccc(F)cc1)C(=O)NCC(c1cccs1)S(=O)(=O)c1cccs1 (stereo unspecified) | -3.6% |
| Cc1cccc(N2CCN(C(=O)c3cc(S(=O)(=O)N4CCC(C)CC4)cn3C)CC2)c1C | 2.3% |
| COc1ccc(OCc2nc3c4c(-c5ccc(OC)cc5)c(-c5ccc(OC)cc5)oc4ncn3n2)cc1 | -30% |
| CSCCC(NS(=O)(=O)c1ccc2c(c1)oc(=O)n2C)C(=O)N1CCN(c2cc(Cl)ccc2C)CC1 (stereo unspecified) | -1.3% |
| COc1ccc(CCn2c3c(c(=O)[nH]c2=O)C(NC(=O)c2ccccc2OC)(C(F)(F)F)C(=O)N3)cc1OC (stereo unspecified) | -1.8% |

New compounds follow.
| Compound | ClpP mod |
| --- | --- |
| O=C(c1ccc2c(c1)CCN2S(=O)(=O)c1ccc(Cl)cc1)N1CCN(c2ccccc2F)CC1 | 2.3% |
| COc1ccccc1Nc1c2c(nc3ccc(NC(=O)c4ccccc4F)cc13)CCCC2 | -4.4% |
| COc1ccc(CCNc2ncnc3onc(-c4ccc(Cl)cc4)c23)c(OC)c1 | -3.3% |
| CCOC(=O)c1cc(-c2ccccc2)n(CCCC(=O)Nc2ccc(CC)cc2)c1C | u |
| Cc1ccc(C)n1-c1nnc(N2CCCC(C(=O)NCc3cccc(Br)c3)C2)s1 (stereo unspecified) | -1.8% |
| Cc1cccc(NC(=O)c2c(C)oc3ncn(CC(C)C)c(=O)c23)n1 | -0.1% |
| Cc1oc2ccc(O)c(CN3CCN(Cc4ccccc4)CC3)c2c1C(=O)Nc1ccccc1 | -3.6% |
| COc1cc(CNC(=O)c2cnc(SC)nc2-c2ccccc2)cc(OC)c1OC | 0.2% |
| CCSc1nc(-c2cccc(Cl)c2)nc2c1Cc1c(CO)cnc(C)c1O2 | -0.1% |
| CN(C)S(=O)(=O)c1ccc(C(=O)NCCSc2c(-c3ccccc3)[nH]c3ccccc23)cc1 | -13% |
| CN(C(=O)CSc1nc2ccc(NC(=O)c3ccccc3F)cc2s1)c1ccccc1 | -25% |
| COc1ccc(CC(=O)NCC(c2cccs2)S(=O)(=O)c2ccc(C)cc2)cc1 (stereo unspecified) | 1.9% |
| COc1ccc2c(C)c(CCC(=O)NCCc3ccc(OC)c(OC)c3)c(=O)oc2c1 | 4.7% |
| COc1ccc(Oc2c(C(F)(F)F)oc3c(CN4CCCC(C)C4)c(O)ccc3c2=O)cc1 (stereo unspecified) | -2.5% |
| CC(C)(C)c1cc(C(C)(C)C)c2oc(=O)c(-c3nc4ccccc4[nH]3)cc2c1 | u |
| O=C(Cn1c(=O)c2ccccc2n(CC(=O)Nc2ccccc2F)c1=O)NCCc1ccccc1 | -1.3% |
| Cc1ccc(Cn2c(-c3ccccc3)nc3ccccc32)cc1 | -20% |
| CCCCn1c(=N)n(CCOc2ccccc2OC)c2ccccc21 | -2.0% |
| COc1ccc(C(=O)NCC(=O)OCC(=O)c2ccc3ccccc3c2)cc1 | -1.9% |
| COc1cc(C2SC[C@H]3C(=O)N(c4ccccc4)C(=O)N23)cc(OC)c1OC (stereo partly specified) | -2.1% |
| CCC(Cc1ccccc1)NC(=O)c1cccc(Nc2nc3ccccc3nc2-n2nc(C)cc2C)c1 (stereo unspecified) | -7.0% |
| CC(=O)Nc1ccc(C(=O)CSc2nnc3cc(C)c4ccccc4n23)cc1 | -6.6% |
| COc1ccc(NC(=O)CSc2nc3nc(C)c(Cc4ccccc4Cl)c(C)n3n2)cc1OC | -9.7% |
| CCN(CC)S(=O)(=O)c1nnc(NC(=O)c2ccc(C(C)C)cc2)s1 | -12% |
| COc1ccc(NC(=O)c2c(C)oc3ccc(O)c(CN4CCN(Cc5ccccc5)CC4)c23)cc1Cl | -5.0% |
| CCOC(=O)c1ccc(NC(=O)c2cn(-c3ccccc3)nc2-c2ccc(Br)cc2)cc1 | 0.2% |
| CCOc1cccc2cc(-c3cn4c(n3)sc3cc(C)ccc34)c(=O)oc12 | -20% |
| COc1ccc(CCSc2n[nH]c(C(C)C)n2)cc1 | -0.5% |
| Cc1ccc(Nc2ccc(N3CCN(C(=O)c4ccc([N+](=O)[O-])cc4Cl)CC3)nn2)cc1 | -0.4% |
| Cc1c(C(=O)Nc2ccc(Br)cc2F)oc2ccc(S(=O)(=O)N3CCCCC3)cc12 | -9.0% |
| COc1cccc(CNC(=O)Cn2nc(C)n3c(cc4cc(C)ccc43)c2=O)c1OC | -16% |
| CCOCCCNC(=O)c1cc(=O)[nH]c2ccc(S(=O)(=O)N3CCCC3)cc12 | -9.1% |
| Cc1ccc(NC(=O)CN2C(=O)CCc3cc(S(=O)(=O)N4CCOCC4)ccc32)cc1F | -0.7% |

This is a subset, so the mix of outcomes need not match the whole.
